SARS PLP yeast = qHTS of Yeast-based Assay for SARS-CoV PLP. S. cerevisiae expressing SARS-CoV PLpro, growth rescue; control for the full effect not named in the record. Potency, µM (doses to about 32.9 µM), without a hit: at the top dose activity, positive = growth rescue. hit rate 0.19% among 330,000. AID 485353, 2010; active means well fitted rising curve with a large enough effect; inconclusive means small, poorly fitted or top-dose-only effect; inactive means no such curve, though single readings can be large or run the other way; note: 0% is about no effect; nearly all actives have a fitted effect of over 55% in size; growth read by luminescence after 48 h
Cruzain inh Det = qHTS Assay for Promiscuous and Specific Inhibitors of Cruzain (with detergent); purified cruzain, Z-FR-AMC fluorescence, 0.01% Triton; Potency, µM, without a hit: max response, negative = inhibition, hits mostly inhibitors; hit rate 0.43% among 200,000;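 note: plate controls were neutral wells for no effect and buffer without enzyme for full effect; nearly all actives have a fitted effect of over 40% in size; top concentration of the series not given in the record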
Target sequence (P25779 123-467 limits assumed): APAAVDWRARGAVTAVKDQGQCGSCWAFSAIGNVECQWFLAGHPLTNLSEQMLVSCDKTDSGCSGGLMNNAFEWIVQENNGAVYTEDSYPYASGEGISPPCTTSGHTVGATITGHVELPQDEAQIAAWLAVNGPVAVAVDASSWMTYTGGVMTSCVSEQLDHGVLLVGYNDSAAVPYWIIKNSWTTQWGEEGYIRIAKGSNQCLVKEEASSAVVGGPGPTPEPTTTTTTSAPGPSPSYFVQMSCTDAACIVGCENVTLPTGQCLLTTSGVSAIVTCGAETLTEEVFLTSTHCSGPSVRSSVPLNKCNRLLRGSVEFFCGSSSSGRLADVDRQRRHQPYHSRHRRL
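Read-out: AMC fluorescence (360 nm excitation, 450 nm emission), four reads over 2 min, first-to-third difference used. Conditions: cruzain 1.5 nM, Z-FR-AMC 2 uM, pH 5.5 acetate, 5 mM DTT, 0.01% Triton X-100.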
RE007 growth inh = qHTS Assay for Inhibitors of the HIV-1 protein Vpr | AID 651644, 2012 | Potency, µM (top dose mostly 92.2 µM), inactives show at the top dose activity change, negative = less growth | S. pombe RE007 Vpr strain, BacTiter-Glo ATP luminescence, 24 h; control for the full effect not named in the record | hit rate 0.21% among 360,000; active = well fitted falling curve with a large enough effect; inconclusive = small, poorly fitted or top-dose-only effect; inactive = no such curve, though single readings can be large or run the other way;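 note: % is set by controls: 0 for no effect and ±100 for the full control effect; nearly all actives have a fitted effect of over 50% in size; the assay follows cell death caused by Vpr and the record does not say whether a fall means rescue or toxicity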
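Fission yeast RE007 carrying one integrated HIV-1 vpr copy, seeded at OD 0.01 in PMG+AL medium with 23 nL pinned compound. Grown 24 h at 30 degrees; viability read by BacTiter-Glo luminescence after 5 min.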
LASV entry inh = qHTS for Inhibitors of binding or entry into cells for Lassa Virus; Lassa virus pseudotype entry inhibition, cell reporter; control for the full effect not named in the record; Potency, µM (series often up to 37.9 µM), for the others: top-dose activity change, negative = inhibition, usual class: inhibitors; hit rate 1.2% among 300,000; AID 540256, 2011; active means well fitted inhibition curve with a large enough effect; inconclusive means small, poorly fitted or top-dose-only effect, or effect the other way; inactive means flat fitted curve, though single readings scatter; tested in HEK293 cells; note: % is set by controls: 0 for no effect and ±100 for the full control effect; nearly all actives have a fitted effect of over 50% in size; luciferase read-out
NS1 function inh = qHTS Assay for Inhibitors of Influenza NS1 Protein Function | S. cerevisiae slowed by influenza A NS1, growth recovery by OD600 | hit rate 0.4% among 270,000 | Potency, µM (titrated, usually from 46.1 µM), inactives show top-dose activity, positive = more growth | AID 2326, 2010; active means well fitted rising curve with a large enough effect; inconclusive means small, poorly fitted or top-dose-only effect; inactive means no such curve, though single readings can be large or run the other way; note: nearly all actives have a fitted effect of over 50% in size
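Growth recovery, yeast-based: influenza A NS1 expressed in S. cerevisiae causes slow growth, and suppressors are detected by OD600. The parent strain without NS1 is used as positive control.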
2A StopGo = High Throughput Screening for Foot and Mouth Disease Virus Antivirals; human cells with a luciferase reporter of 2A StopGo recoding; control for the full effect not named in the record; Potency, µM (doses to about 57.9 µM), without a hit: at the highest dose signal change, negative = less light; hit rate 1.2% among 410,000; AID 1159524, 2015; active = well fitted falling curve with a large enough effect; inconclusive = small, poorly fitted or top-dose-only effect; inactive = no such curve, though single readings can be large or run the other way; tested in HEK293T cells; note: % is set by controls: 0 for no effect and ±100 for the full control effect; nearly all actives have a fitted effect of over 45% in size; luciferase light after 4 h
Cruzain inh noDet = qHTS Assay for Promiscuous and Specific Inhibitors of Cruzain (without detergent). purified cruzain, Z-FR-AMC fluorescence, no detergent. Potency, µM, without a hit: max response, negative = inhibition, most hits filed as inhibitors. hit rate 2.3% among 200,000. AID 1476, 2009;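 note: plate controls were enzyme without inhibitor for no effect and buffer without enzyme for full effect; nearly all actives have a fitted effect of over 40% in size; top concentration of the series not given in the record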
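Purified cruzain at 1.5 nM, pre-incubated 15 min with compound at room temperature in 100 mM sodium acetate pH 5.5, 5 mM DTT, 0.00005% Triton X-100. Reaction started with 2 uM Z-FR-AMC; AMC fluorescence increase over 60 s gives rate.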
MARV entry inh = qHTS for inhibitors of binding or entry into cells for Marburg Virus; Marburg virus pseudotyped entry inhibition, cell reporter; control for the full effect not named in the record; about a third of the inactives were read at about 46 µM; Potency, µM (doses to about 37.8 µM), without a hit: at the highest dose activity change, negative = inhibition, usual class: inhibitors; hit rate 1.8% among 300,000; active = well fitted inhibition curve with a large enough effect; inconclusive = small, poorly fitted or top-dose-only effect, or effect the other way; inactive = flat fitted curve, though single readings scatter; tested in HEK293 cells; about a fifth of its hits are not listed in these tables; note: % is set by controls: 0 for no effect and ±100 for the full control effect; luciferase read-out
* hit, by the source's call; ? = inconclusive; . = no result given; & = joins results of further samples; [ ] = remark or other dose. Unless noted, calls come from the whole dose curve; as a rule, active = well fitted curve in the direction sought with a large enough effect; inconclusive = small, poorly fitted or top-dose-only effect, or another doubt; inactive = no such curve, though single readings can be large; an effect the other way counts as inactive or inconclusive. Potency is the fitted concentration of half-maximal effect.

Order of results: SARS PLP yeast	Cruzain inh Det	RE007 growth inh	LASV entry inh	NS1 function inh	2A StopGo	Cruzain inh noDet	MARV entry inh
- COc1ccc(-c2cc(C(=O)NCCc3ccccc3)c3cc(C(C)C)ccc3n2)cc1
    .	2.4%	.	1%[46.1 µM]	.	18%	-13%	.
- CC1=NN(C(=O)CCc2ccccc2O)C(O)(C(F)(F)F)C1 (stereo not given)
    -8%	3.8%	.	6%	3%	-19%	3%	0%
- Clc1ccc(CN2C3=NCCCN3c3ccccc32)cc1Cl
    14%	.	-5%	?	0%	-24%	.	?
- Cc1cc(C)cc(NC(=O)CN2C(=O)CSc3ccc(S(=O)(=O)N4CCCC4)cc32)c1
    .	-5.6%	.	-1%[46.1 µM]	.	-9%	1%	.
- CCCCc1c(C)nn(-c2nnc3c4ccccc4n(C)c3n2)c1C
    2%	4.8%	-6%	20%	6%	13%	?	-1%&-1%
- CCC1(CC)C(=O)NC(=O)NC1=Nc1ccccc1
    -2%	-4.2%	15%	0%	19%	-20%	21%	1%[46.1 µM]
- CCN(CC)S(=O)(=O)c1ccc(OC)c(NC(=O)c2ccc(-n3cncn3)c([N+](=O)[O-])c2)c1
    -1%	.	11%	-6%[46.1 µM]	.	5%	.	-7%
- Cc1nn(C)c(Oc2cccc(C(F)(F)F)c2)c1C#N
    -1%	.	4%	0%[46.1 µM]	.	-10%	.	-3%[46.1 µM]
- CC(NC(=O)COC(=O)c1ccc2c(c1)S(=O)(=O)N=C1CCCCCN12)C12CC3CC(CC(C3)C1)C2 (stereo not given)
    1%	6.8%	3%	0%	-5%	-12%	-2%	0%
- CCC(CC)NC(=O)CCCSc1nc2ccccc2[nH]1
    -3%	.	-3%	2%	-2%	1%	.	1%[46.1 µM]
- CCN(CC)S(=O)(=O)c1ccc(OC)c(NC(=O)/C=C/c2ccco2)c1
    1%	.	-9%	.	?	-8%	.	.
- CCN(CC)S(=O)(=O)c1ccc(S(=O)(=O)N(CC(=O)Nc2ccccc2)Cc2ccco2)cc1
    14%	-5.7%	-16%	9%	?	?	-1%	8%
- CCN(Cc1ccccc1)C(=O)Cn1c(=O)cc(C)c2c(C)nn(-c3cccc(F)c3)c21
    .	-8.0%	.	-3%[46.1 µM]	.	-1%	?	.
- CC(=O)c1cc2c(cc1N/C(=N/S(=O)(=O)c1ccc(C)cc1)c1ccc(F)cc1)OCO2
    .	1.7%	.	6%[46.1 µM]	.	51%[activator]	25%	.
- Cc1ccc(C(=O)NC2CCN(C(=O)Nc3ccccc3Cl)CC2)cc1
    -2%	.	5%	?	2%	2%	.	-8%[46.1 µM]
- CC1(C)CC(=O)C(C(C2=C(O)CC(C)(C)CC2=O)c2ccco2)C(=O)C1 (stereo not given)
    1%	-0.2%	13%	6%	?	?	5%	?
- Cc1cc(C)c(NC(=O)c2ccc[n+](Cc3ccc([N+](=O)[O-])cc3)c2)c(C)c1
    9%	-1.9%	7%	?	-3%	-8%	-10%	?
- CCOCCCNC(=O)c1c(N)n(-c2ccc3c(c2)OCO3)c2nc3ccccc3nc12
    -1%	.	0%	-32%	5%	-24%	.	?
- Cc1cc(C)nc(Nc2n[nH]c(-c3ccc(N)cc3)n2)n1
    -7%	-2.7%	1%	-12%	-1%	3%	-3%	-1%
- COc1ccccc1N=NC1=C(O)CC(C)(C)CC1=O
    -13%	-7.3%	-11%	13%	-5%	39%[activator]	-4%	?
- CNS(=O)(=O)c1cccc(C(=O)OCC(=O)/C=C2/N(C)c3ccccc3C2(C)C)c1
    13%	-14%	11%	?	6%	?	3%	-15%
- O=C(CSc1nncn1-c1ccccc1)c1c[nH]c2ccccc12
    0%	.	9%	-6%[46.1 µM]	6%	-9%	.	3%[46.1 µM]
- CCCN1C(=O)C2(SC(NC(C)=O)=NN2C(C)=O)c2cc(C)ccc21 (stereo not given)
    0%	.	-1%	.	1%	58%[activator]	.	1%[46.1 µM]
- CCC(Sc1nc2ccncc2[nH]1)C(=O)Nc1cc(C)ccc1C (stereo not given)
    .	-4.9%	.	13%[46.1 µM]	.	-15%	0%	2%[46.1 µM]
- OC(CNCC1CCCO1)Cn1c2ccc(Cl)cc2c2cc(Cl)ccc21 (stereo not given)
    -12%	-3.6%	0%	?	-125%	?	?	?
- Cc1ccc(-c2nnc(SCC(=O)N/N=C/c3ccc(C)s3)n2-c2ccc(C)cc2)cc1
    2%	-6.6%	9%	?	21%	-6%	13%	?
- O=c1[nH][nH]c(-c2ccccc2O)c1C(C[N+](=O)[O-])c1ccccc1 (stereo not given)
    2%	-5.1%	?	2%	-1%	-20%	3%	?
- CCOc1ccc(NC(=O)C2CC(=O)N(c3ccccc3F)C2)cc1 (stereo not given)
    -2%	.	6%	12%	-4%	2%	.	5%[46.1 µM]
- CC(C(=O)Nc1nc(-c2ccc(F)cc2)cs1)N1C(=O)C2CC=CCC2C1=O (stereo not given)
    2%	.	6%	-24%	.	28µM*	.	-20%
- Cc1nn(S(=O)(=O)c2ccccc2)c(C)c1S(=O)(=O)N1CCC(C)CC1
    -1%	-1.8%	12%	2%[46.1 µM]	-6%	15%&52%	-1%	.
- C[C@]12CCC3C(CC[C@H]4C[C@@H](O)CC[C@]34C)C1CC[C@@H]2N (stereo not given in full)
    -4%	.	-4%	-4%	.	?	.	0%
- CCCCn1nc2cc(C(=O)NCc3cc(C(F)(F)F)cc(C(F)(F)F)c3)ccc2c1OC
    3%	-27%	8%	.	19%	-24%	0%	.
- CCn1c2ccccc2c2nnc(SCc3ccccc3)nc21
    -30%	-4.2%	6%	-5%	-77%	-12%	-7%	20%
- O=c1c2ccccc2sc2nc(CCl)nn12
    .	.	-5%	?	.	?	.	?
- CN1CCN(C(CNC(=O)C(=O)Nc2ccc3c(c2)OCCO3)c2ccc(F)cc2)CC1 (stereo not given)
    0%	.	6%	?	.	-8%	.	?
- Cc1cc(C(C)(C)C)cc(S(=O)(=O)NCC(=O)O)c1C
    -10%	-0.7%	-11%	-14%	-16%	70%[activator]	9%	3%
- O=C(O)c1cc(-c2ccco2)nn1-c1ccc(Cl)cc1
    4%	.	10%	3%	7%	5%	.	21%
- COc1cc(CC(C#N)(CO)c2nc3ccccc3[nH]2)ccc1OC(F)F (stereo not given)
    0%	0.7%	-1%	-3%	-10%	10%	11%	?
- CCn1ncc(S(=O)(=O)NCc2ccco2)c1C
    -4%	.	5%	.	16%	0%	.	.
- CSc1ccc(Cl)c(C(=O)N2CCOc3ccccc32)c1
    1%	.	5%	.	18%	?	.	.
- COC(=O)CSc1nc2c(c(=O)[nH]c(=O)n2C)n1CCC(C)C
    -13%	-2.5%	20%	1%	3%	1%	-8%	-3%
- COC(=O)c1c(NC(=O)c2nc(SCc3ccccc3C)ncc2Cl)sc2c1CCCC2
    .	2.6%	.	27%[46.1 µM]	.	0%	16%	4%[46.1 µM]
- COc1ccc(-c2cn3cccnc3n2)cc1NC(=O)C(C)Oc1ccccc1 (stereo not given)
    ?	.	-7%	?	-4%	-26%	.	?
- CN(CC(=O)Nc1cccc(F)c1)C(=O)CCCn1c(=O)oc2ccccc21
    -4%	.	2%	?	.	-10%	.	23%[46.1 µM]
- CC(C)N(C(=O)CSc1nnc(C2CC2)n1C1CC1)c1ccccc1
    0%	.	32%	-12%	.	-11%	.	-24%[46.1 µM]
- O=C(CSc1nnc(CNC(=O)c2cccs2)o1)NC1CCCCC1
    .	-0.5%	7%	5%	-2%	14%	-5%	?
- COc1ccc(-n2c(SCC(=O)Nc3ccc([N+](=O)[O-])cc3OC)nc3ccccc32)cc1
    7%	-0.9%	5%	12%	-5%	-14%	7.9µM*	18%
- O=C(NC1CCCCCC1)c1cc(=O)[nH]c2ccc(S(=O)(=O)N3CCOCC3)cc12
    2%	.	-6%	2%	.	13%	.	-3%[46.1 µM]
- CC(C)(C)c1ccc(OCC(=O)N(Cc2cccs2)C2CCS(=O)(=O)C2)cc1 (stereo not given)
    -2%	.	-11%	.	-16%	-12%	.	.
- COc1ccc(Cn2nnnc2CN2CCCCCC2)cc1
    0%	.	-11%	-14%	4%	0%	.	6%
- O=C(NCc1ccc(Cl)cc1)c1ccc(Cn2c(=O)c3cccn3c3cccnc32)cc1
    .	-1.1%	.	22%[46.1 µM]	.	-13%	-7%	.
- FC(F)(F)c1ccc(CN2C[C@@H]3C(c4ccccc4)C4(c5ccccc5)CC3(C4)[C@H]2c2ccccc2)cc1 (stereo not given in full)
    -9%	-0.9%	.	.	-5%	.	?	.
- O=C(O)CC1SC(=Nc2ccc(O)cc2)NC1=O (stereo not given)
    -1%	.	1%	-4%[46.1 µM]	.	1%	.	20%[46.1 µM]
- Cc1ccc(Cl)cc1NC(=O)CSC(N)=O
    -2%	-13%	-5%	-11%	-5%	-23%	-18%	-9%
- C=CCN1C(=O)c2ccccc2Sc2ccc(C(=O)NC(C)C)cc21
    -1%	.	0%	.	0%	-17%	.	.
- O=C(COC(=O)c1ccccc1C(=O)c1ccccc1)Nc1cccc([N+](=O)[O-])c1
    6%	-8.0%	11%	?	?	5%	-12%	-1%
- CCn1c(C(C)NC(C)=O)nc2ccccc21 (stereo not given)
    10%	-4.4%	-10%	.	5%	0%	3%	.

An unsorted share of the library; 4.6% or so of the library scored in one or more.
